From PubChem
PINK1 expr mod – PINK1 expression modulation | PINK1 immunofluorescence, high-content cytometry, 24 h | Potency, µM (top dose mostly 76.6 µM), for inactives: at the top dose activation (PINK1 increase), usual class: activators | actives 0.2% (n = 410,000); active = well fitted activation curve with a large enough effect; inconclusive = small, poorly fitted or top-dose-only effect; inactive = flat fitted curve, though single readings scatter; cell line not stated here;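 also: potency is read from the fitted curve at half-maximal effect; % of control where 0% means no effect; nearly all actives have a fitted effect of over 65% in size; a mitochondrial uncoupler was the plate control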
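Cells are seeded, rested 12 hours, then given compound at five concentrations or DMSO for 24 hours. After fixation, blocking and antibody staining, PINK1 amount and mitochondrial localization are scored; CCCP serves as control.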
TRPV1 potentiator – human TRPV1 potentiation; actives 0.02% (n = 320,000); AID 540277; potentiation, % at 8.33 µM; Q8NER1; TRPV1-expressing cells, Fluo-8 calcium influx, capsaicin EC20 potentiation; host cell line not named in the record; control for the full effect not named in the record; active means potentiation above 80%; inconclusive means 30% to 80%; inactive means below 30%; also: 0% is about no effect
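TRPV1-expressing cells were cultured overnight at 35.5C and loaded with Fluo-8 calcium dye for 40 to 90 min at room temperature. After a 10 s baseline, compound was added and calcium influx was read kinetically for 3 min (ex 480/em 520 nm).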
D2 potentiator – human D2 receptor positive allosteric modulation | P14416 | DiscoveRx D2 beta-arrestin cells, luminescence, 90 min; 100% = 57 uM dopamine signal | potentiation, % (concentration not given with the values) | actives 0.23% (n = 360,000); active = potentiation of 50% or more; inconclusive = 30% to 50%; inactive = 30% or less;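 also: compound concentration not given in the record; tested on top of an EC20 dose of dopamine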
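PathHunter beta-arrestin assay in DiscoveRx D2 cells. Compounds were added with an EC20 of dopamine (50 nM final) for 90 min at 37 deg C. Luminescence was read 1 h after detection reagent, with 57 uM dopamine as the EC100 control.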
Sfp inh – Sfp phosphopantetheinyl transferase inhibition; Q9F4F7; Biochemical Sfp PPTase activity, qHTS; actives 3.5% (n = 310,000); Potency, µM, for the others: max response, negative = inhibition, most hits filed as inhibitors; active = well fitted inhibition curve with a large enough effect; inconclusive = small, poorly fitted or top-dose-only effect, or another doubt; inactive = no such curve, though single readings can be large or run the other way;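 also: the enzyme is Sfp with the accession as filed and its product quenches rhodamine fluorescence; potency is read from the fitted curve at half-maximal effect; 0% = enzyme reaction without inhibitor and -100% = no enzyme wells; top concentration of the series not given in the record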
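Fluorescence-quenching assay with 15 nM Sfp, 5 uM rhodamine-CoA and 12.5 uM BHQ-2-labelled ybbR peptide in pH 7.6 Hepes/MgCl2 buffer. Enzyme was pre-incubated with compound for 15 min at room temperature. Rate was taken from the 30-min fluorescence change (525/598 nm).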
CtBP-E1A blk – inhibitors of CtBP/E1A interaction. AlphaScreen GST-E1A/His-CtBP binding, 1536-well; stronger effect = lower value; control for the full effect not named in the record. activity change, % (test concentration not listed). actives 0.49% (n = 340,000). AID 651724; in the data active means activity change below about -65%; inconclusive means about -30% to -65%; inactive means above about -30%; also: % is scaled to controls: 0 for no effect and ±100 for the full control effect; compound concentration not given in the record
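AlphaScreen with 125 nM GST-E1A and 125 nM His-CtBP (5X stocks) in Tris pH 8.0, 300 mM NaCl, BSA, Tween 20, TCEP. Compounds preincubated 2 h at 37 deg C, then glutathione donor/nickel acceptor beads added for 1 h at 37 deg C in dark.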
Six1-Eya2 blk – blocks human Six1 binding to Eya2. Q15475+O00167. AlphaScreen GST-Six1/His-Eya2 binding, biochemical; stronger effect = lower value; control for the full effect not named in the record. activity change, % (concentration not given with the values). actives 0.56% (n = 360,000); in the data active = activity change below about -65%; inconclusive = about -30% to -65%; inactive = above about -30%; also: % is scaled to controls: 0 for no effect and ±100 for the full control effect
Target sequence (O00167 whole entry, looked up): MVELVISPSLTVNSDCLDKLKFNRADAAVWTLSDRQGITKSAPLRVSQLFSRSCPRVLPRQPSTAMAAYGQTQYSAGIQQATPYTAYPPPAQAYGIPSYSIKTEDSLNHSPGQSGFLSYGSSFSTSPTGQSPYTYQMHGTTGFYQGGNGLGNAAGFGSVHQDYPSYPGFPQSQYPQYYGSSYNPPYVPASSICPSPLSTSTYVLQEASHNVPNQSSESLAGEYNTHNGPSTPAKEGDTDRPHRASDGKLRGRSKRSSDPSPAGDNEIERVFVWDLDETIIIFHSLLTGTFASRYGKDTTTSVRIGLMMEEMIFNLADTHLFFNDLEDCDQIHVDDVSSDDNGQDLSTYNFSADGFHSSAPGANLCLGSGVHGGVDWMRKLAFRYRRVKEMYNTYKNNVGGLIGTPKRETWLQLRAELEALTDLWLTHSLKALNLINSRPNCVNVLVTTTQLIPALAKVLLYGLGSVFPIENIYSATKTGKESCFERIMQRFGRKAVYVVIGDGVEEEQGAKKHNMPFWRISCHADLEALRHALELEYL
Target sequence (Q15475 whole entry, looked up): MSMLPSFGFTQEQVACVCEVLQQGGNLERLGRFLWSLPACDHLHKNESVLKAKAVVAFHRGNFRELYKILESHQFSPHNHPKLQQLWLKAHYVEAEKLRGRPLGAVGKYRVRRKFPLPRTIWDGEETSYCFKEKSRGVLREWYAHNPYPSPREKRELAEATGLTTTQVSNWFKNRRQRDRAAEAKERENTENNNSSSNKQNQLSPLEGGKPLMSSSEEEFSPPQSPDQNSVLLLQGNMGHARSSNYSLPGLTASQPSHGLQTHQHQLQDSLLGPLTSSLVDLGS
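Six1/Eya2 binding was read as AlphaScreen signal after compounds were pinned into GST-Six1 plus His-tagged Eya2 (5X stock 250/500 nM) in pH 8.0 Tris/NaCl/TCEP buffer, beads added, then incubated 1 h, 37 C, dark.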
D2 ag – agonists of human D2 dopamine receptor (beta-arrestin) | P14416 | DiscoveRx PathHunter D2 beta-arrestin, luminescence, 90 min; 100% = 57 uM dopamine signal | activation, % (concentration not given with the values) | actives 0.084% (n = 360,000); in the data active = activation above about 40%; inconclusive = about 15% to 40%; inactive = below about 15%; also: compound concentration not given in the record; the text of the record calls up to 30% inactive
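DiscoveRx PathHunter D2 beta-arrestin cells (2,100/well) attached overnight, then compound-stimulated 90 min at 37 C in HBSS/10 mM HEPES/0.1% Tween-20 buffer; beta-galactosidase complementation read by luminescence after 1 h at ambient temperature. Dopamine 57 uM final (EC100) as control.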
Active calls of the source: *; ? = inconclusive; nt = not tested or not shown; [ ] = remark or other dose.

Start of the listing, in advance:
Order of results: PINK1 expr mod | TRPV1 potentiator | D2 potentiator | Sfp inh | CtBP-E1A blk | Six1-Eya2 blk | D2 ag
CC(OC(=O)Cc1ccsc1)C(=O)Nc1ccc(Cl)cn1 (stereo not given)
  0.0% | -15 | 0 | nt | 1 | 3 | 4.1
O=S(=O)(Nc1cccc(CCc2ccccn2)c1)c1cc(Cl)ccc1Cl
  3.4% | 9 | 1 | 20% | 6 | 2 | -0.3

All compounds of this part, from the first entry:
Order of results: PINK1 expr mod | TRPV1 potentiator | D2 potentiator | Sfp inh | CtBP-E1A blk | Six1-Eya2 blk | D2 ag
CC(OC(=O)Cc1ccsc1)C(=O)Nc1ccc(Cl)cn1 (stereo not given)
  0.0% | -15 | 0 | nt | 1 | 3 | 4.1
O=S(=O)(Nc1cccc(CCc2ccccn2)c1)c1cc(Cl)ccc1Cl
  3.4% | 9 | 1 | 20% | 6 | 2 | -0.3
NC(=O)c1ccc(N2CCC(C(N)=O)CC2)c([N+](=O)[O-])c1
  0.6% | -5 | -9 | 1% | 0 | -2 | -4.6
CC(C)NC(=O)Nc1ccc2c(c1)C(=O)N([C@H](C)CO)C[C@@H](C)[C@@H](CN(C)C(=O)NC1CCCCC1)O2
  2.1% | nt | -8 | nt | 2 | -2 | -0.1
CCOc1ccc2c(C)cc(=O)oc2c1OCC
  -0.5% | 13 | -12 | -1% | -5 | 7 | 0.5
COc1cc(C(=O)Nc2cc(-c3nc4cc(C)ccc4o3)ccc2C)cc(OC)c1OC
  2.4% | -5 | 2 | ? | 3 | 2 | 0.2
COCCn1nnnc1C(c1ccccn1)N1CCN(c2cccc(C)c2C)CC1 (stereo not given)
  -0.1% | -14 | 2 | 4% | -2 | -8 | -3.6
CCOC(=O)c1c(N)sc(-c2ccccc2)c1C
  -4.3%[38.3 µM] | 2 | -16 | ? | 6 | -15 | -2.1
CCCCCCCNC(=O)C1(CC2CC(c3ccccc3)=NO2)CCN(C(=O)OC(C)(C)C)CC1 (stereo not given)
  1.5% | -4 | -12 | nt | nt | 1 | -2.0
C[C@]12c3[nH]c4ccccc4c3CCN1C(=O)C(CC(=O)NCCCn1ccnc1)C[C@@H]2C(=O)N1CCCCC1 (stereo not given in full)
  1.6% | nt | -3 | nt | -9 | -2 | -0.9
CCn1nc(C)c(CN2CCC(n3nccc3NC(=O)Cc3ccccc3)CC2)c1C
  0.1% | 5 | -25 | 13% | -2 | 6 | -4.9
COc1cccc(CNC(=O)[C@@H]2CCCN2C(=O)OC(C)(C)C)c1
  -0.5% | nt | nt | nt | -17 | 3 | nt
O=C(O)C1CC=CCC1C(=O)NC1CCCCC1 (stereo not given)
  3.5% | 20 | -6 | 3% | 5 | -9 | 2.1
CCSc1nnc(NC(=O)/C=C/c2ccco2)s1
  0.9% | 2 | -34 | -27% | nt | 0 | 1.7
COc1ccc(CN2CCCC(CNC(=O)c3ccc(F)cc3)C2)c(F)c1 (stereo not given)
  -0.4% | -9 | -11 | 25% | 1 | 5 | -4.1
Cc1ccccc1-c1nc(CN2CCC(C(=O)NCc3cccs3)CC2)c(C)o1
  -0.1% | 7 | -26 | 6% | -1 | -1 | -1.1
OCCC1CN(Cc2cccc(-n3cccn3)c2)CCN1Cc1ccccc1 (stereo not given)
  1.7% | 3 | -25 | 10% | -4 | 0 | -1.8
COc1ccc(N(CC(=O)NC2CCCCCCC2)S(=O)(=O)c2c(C)nn(C)c2C)cc1
  -0.9% | nt | -5 | -3% | -6 | -1 | 4.2
Cc1nc2cc(NC(=O)N(C)c3ccc4ccccc4c3)ccc2o1
  nt | 0 | -5 | 3% | 1 | 0 | 1.7
CCOc1ccccc1NC(=O)Cn1nnc(-c2ccc(OCC)c(OCC)c2)n1
  2.3%[38.3 µM] | 1 | 2 | -18% | 4 | 5 | -2.2
COc1cccc(C(=O)Nc2cc(C(F)(F)F)ccc2Cl)c1
  nt | -13 | -11 | 2% | 2 | 23 | 3.1
O=C(Nc1ccc(F)cc1F)C1CCN(C(=O)c2ccc(Br)cc2)CC1
  1.3% | -13 | -5 | 5% | nt | 9 | -3.8
CCCCCCn1c(CN2CCCCC2CC)nc2c1c(=O)n(C)c(=O)n2C (stereo not given)
  -1.5% | -8 | -8 | 10% | -21 | 1 | -3.7
O=C(CSC1=NC2(CCCCCC2)N=C1c1ccccc1)Nc1ccc2c(c1)OCCO2
  1.7% | -27 | 0 | 21% | -7 | -15 | -3.1
O=C(NCCc1ccccn1)C1CCCN1S(=O)(=O)c1ccc(Cl)cc1 (stereo not given)
  2.8% | 27 | 2 | 8% | -4 | -3 | 0.4
Cc1ccc2nc(-c3ccccc3)cc(C(=O)Nc3cccnc3)c2c1
  12% | -9 | -5 | nt | -5 | 2 | 0.7
Cc1cc(C)n(Cc2ccccc2)c(=O)c1S(=O)(=O)c1ccccc1
  -1.0% | -26 | 1 | 1% | 5 | 8 | -1.6
COC(CNC(=O)CN1CCN(Cc2ccccc2F)C1=O)OC
  0.0% | 6 | -14 | -3% | nt | 8 | 4.7
O=C(COc1ccc(S(=O)(=O)N2CCOCC2)cc1)NC1CCCC1
  -2.5%[38.3 µM] | 20 | 1 | -2% | -9 | 1 | 1.7
COc1ccc(NS(=O)(=O)c2ccc3oc(SCc4ccc(F)cc4)nc3c2)cc1
  ? | 14 | -10 | 10% | 5 | 0 | 4.7
CCOc1ccc(Cl)cc1CN1CCOCC1
  0.5% | -4 | -3 | 13% | 12 | 2 | -1.5
O=C(c1ccc(NC(=S)NCc2ccc(Cl)cc2)cc1)N1CCCCC1
  0.6% | 5 | 1 | 13% | nt | -3 | -0.9
CC(C)/C=C/C(=O)N1CCC(N2CCC(C(=O)NCC3CCCO3)CC2)CC1 (stereo not given)
  0.6% | nt | -5 | nt | 30 | -12 | -2.2
O=C(Nc1nc2ccccc2n1Cc1ccccc1)c1ccco1
  13% | -5 | -8 | 9% | 3 | -10 | -5.3
O=C(NCCCN1CCOCC1)c1ccc(N2CCCC2)c([N+](=O)[O-])c1
  0.8% | 3 | -7 | 13% | 1 | 4 | -4.1
CN(C)C(=O)C(OC(=O)c1ccc2c(c1)CCCC2)c1ccccc1 (stereo not given)
  -2.4% | -16 | -4 | -10% | 6 | -4 | -0.4
C[C@@H]1CN([C@@H](C)CO)C(=O)CCCn2nncc2CO[C@H]1CN(C)Cc1cccc(O)c1
  0.6% | nt | -3 | nt | 0 | 12 | -1.1
CCOCCCNC(=O)c1ccc2c(c1)ncn2-c1ccc(C)cc1C
  1.9% | 21 | -2 | 2% | -5 | 10 | -1.7
Cc1ccc(/C=C/C(=O)OCC(=O)N2CC(=O)Nc3ccccc32)o1
  0.9% | -4 | -9 | -8% | 8 | -9 | 1.8
CCOC(=O)c1c(NC(=O)CC2SC(=NC)N(C)C2=O)sc(C)c1C (stereo not given)
  0.5% | 0 | 3 | -1% | -3 | 9 | -0.9
O=C(O)c1c2cc(Br)ccc2nc2[nH]c(=O)[nH]c(=O)c12
  -0.9% | nt | -5 | nt | 1 | -7 | -4.3
OCC1OC(Oc2c(Br)cc(Br)cc2Br)C(O)C(O)C1O (stereo not given)
  1.7% | nt | 5 | nt | 1 | -4 | 1.1
COc1ccc(NC(=S)N(CCN(C)C)Cc2cccs2)cc1
  0.2% | 10 | -13 | 16% | 2 | -13 | -2.0
CCc1ccc(OCc2ccc(C(=O)OC)o2)cc1
  -0.6% | -1 | -7 | 4% | -12 | -18 | 5.9
CC(C)CC(CO)N1CCN(C(=O)c2cccc(C(F)(F)F)c2)CCC1=O (stereo not given)
  3.8% | -15 | -1 | 10% | 5 | 2 | 0.5
COc1ccc(C(=O)n2cc(C(=O)c3cc(C)ccc3O)cn2)cc1
  0.1% | -10 | -1 | 8% | -2 | 6 | 0.0
CC1(C)OC(=O)C2=C(C[C@@H](C3CC3)O[C@@H]2C2CC2)O1
  -1.0% | nt | nt | nt | -3 | 7 | nt
COc1ccc(N2CCN(C(=O)CSc3nnc(COc4cccc5cccnc45)o3)CC2)cc1
  -0.9%[38.3 µM] | -1 | -7 | 10% | -8 | -1 | 1.8
Cc1cc(=O)[nH]c2nnnn12
  0.8% | 3 | 1 | -14% | 8 | 6 | -2.2
Cc1csc(NC(=O)c2ccc3ccccc3n2)n1
  8.7% | -4 | -7 | -2% | -22 | -1 | -0.8
O=C(Nc1ccccc1)c1ccc(Nc2c([N+](=O)[O-])cc([N+](=O)[O-])c3ccccc23)cc1
  0.2% | -3 | -14 | 10% | -8 | 5 | -5.6
CN(CC(=O)NC1CC(C)(C)NC(C)(C)C1)S(=O)(=O)c1cc(Cl)ccc1Cl
  -0.3% | 4 | 7 | 9% | 9 | 0 | 1.9
CC(C)(C)c1cc(=O)n2[nH]c(N)nc2n1
  -0.7% | -1 | -3 | ? | 0 | -28 | 0.2
CC1CN(S(=O)(=O)c2cc(C(=O)NCCC3=CCCCC3)ccc2Cl)CC(C)O1 (stereo not given)
  1.4% | 10 | -62 | nt | 7 | -1 | -4.4
CC1CCN(C(=O)CSc2nnc(-c3ccco3)n2N)CC1
  -0.6% | nt | 5 | nt | 2 | 1 | -0.3
CCCCSc1nc(C)nc2c1c(=O)n(C)c(=O)n2C
  1.8% | 25 | 2 | -3% | 2 | 1 | -3.9
C/C(=C\C(=O)c1ccc(Br)cc1)NCc1ccc2c(c1)OCO2
  -1.9% | 19 | 6 | 3% | 10 | -2 | -4.2
CCc1ccc(Nc2ccc3nonc3c2[N+](=O)[O-])cc1
  -1.1% | nt | -1 | nt | -28 | -7 | -1.3
CCn1c(CNC(=O)c2ccc(OC)c(OC)c2)nnc1SCC(=O)Nc1ccc(OC)cc1
  -2.1% | 5 | 1 | 12% | 1 | -12 | 0.4
CS/C(=C\[N+](=O)[O-])Nc1ccc(Cl)cc1
  -0.8% | -3 | -4 | 3% | 13 | 13 | -3.2
C=CCN=C1CC(C)(C)C(C(=O)OC)C(O)=C1C(=O)CCC (stereo not given)
  -2.8% | -6 | 1 | 14% | 0 | 1 | 2.3
